Screening results as filed in PubChem BioAssay.
MT1-MMP act inh: blockers of MT1-MMP proenzyme processing, primary screen, HT1080 RFP-PRO-GFP cells, GFP/RFP fluorescence; GFP/RFP ratio change, % at 20 µM; hit rate 0.061% among 360,000; GFP/RFP ratio fluorescence, overnight; percent of plate control window, DMSO zero; AID 651647, 2012; Matrix metalloproteinase-14 (Homo sapiens), P50281;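 active = GFP/RFP ratio change of at least 30% with cell ATP level not reduced by more than half and red fluorescence within 50% of control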; also: strong numbers were not always called active
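Assay system: HT1080 cells carrying an RFP-PRO-GFP reporter | Dosing: Single dose of 20 µM compound, 1% DMSO final | Incubation: Cells overnight before dosing, compound overnight, 37 °C, 5% CO2 | Evaluation: GFP/RFP fluorescence ratio | Control set: DMSO and RFP-L50D-GFP cell wells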
CSC inhib: cancer stem cell viability inhibitors, primary screen, luminescence | cancer stem cell-like cells viability | inhibition, % at 7.5 µM | hit rate 1.1% among 300,000 | AID 2717, 2010;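 active = mean at 75% or more and at least half the replicates too; inconclusive = mean and replicates disagree; tested in HMLE shEcad cells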;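 also: 0% = median of negative and 100% = median of positive control wells; the first replicate is given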
eIF4H inh: human eIF4H binding inhibitors, primary screen, translation initiation inhibitor project, biochemical, uHTS, fluorescence polarization; eIF4H fluorescence polarization binding assay; hit rate 0.94% among 290,000; inhibition, % at 35 µM;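 active = 50% or more with normal probe brightness, or confirmed in later tests; inconclusive = above 50% with abnormal brightness, or retests that disagree; inactive = below 50% or failed in later tests; about a fifth of its hits are not listed in these tables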;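 also: calls also rest on retests at 20 µM and on dose response follow-up; 0% = protein and probe with vehicle and 100% = probe without protein; strong numbers were not always called active; many hits fall short of the cut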
PABP polyA inh: PABP poly(A) RNA binding inhibitors, primary screen, biochemical, fluorescence polarization, uHTS. hit rate 1% among 290,000. inhibition, % at 35 µM. Polyadenylate-binding protein 1 (Homo sapiens), P11940. AID 2014, 2009;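 active = 50% or more with normal probe brightness, or confirmed in later tests; inconclusive = above 50% with abnormal brightness, or retests that disagree; inactive = below 50% or failed in later tests; about a fifth of its hits are not listed in these tables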;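 also: calls also rest on retests at 20 µM and on dose response follow-up; controls were probe without protein and protein plus probe with vehicle; some compounds called inactive have numbers as strong as hits; many hits fall short of the cut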
Env fusion inh: inhibitors of HIV-1 Env-driven cell-cell fusion, primary screen, HeLa-JRFL effector, CEM21 target cells, luciferase. inhibition, % at 12.3 µM. hit rate 1.1% among 360,000;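 active = mean replicate inhibition score of at least 50 and every replicate individually at or above 50; inconclusive = only one of the two criteria met; inactive = mean below 50 and not all replicates reaching 50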;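 also: 0% = plate neutral controls and 100% = maraviroc near 300 nM; one replicate is shown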
Yeast UUG start: modulators of yeast start codon fidelity, primary screen, whole organism, S. cerevisiae, single point, plate reader; S. cerevisiae UUG-firefly luciferase reporter, luminescence/redox ratio; hit rate 0.13% among 350,000; activity score, % at 18.7 µM;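 active = replicate mean at a twofold rise or more, about +100% in these data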;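 also: firefly luciferase made from a UUG start codon reports start codon fidelity; reporter light over untreated wells divided by growth signal over untreated wells; some hits fall short of that in this replicate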
Rce1 inh: yeast Rce1p protease inhibitors, primary screen, biochemical, fluorescence, cell-free homogeneous. CAAX prenyl protease 2 (Saccharomyces cerevisiae (strain ATCC 204508 / S288c)), Q03530. yeast membranes, quenched prenylated peptide cleavage fluorescence. calls only. hit rate 0.27% among 290,000. AID 2563, 2010;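 active = fall in fluorescence gain of 50% or more versus controls, with final raw signal at or below 3038400; inconclusive = same 50% fall but final raw signal above 3038400; inactive = fall in fluorescence gain under 50%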;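 also: plate controls were neutral control wells for no effect and wells lacking membranes for full effect; tested at 10 µM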
Target sequence (Q03530 whole entry, looked up): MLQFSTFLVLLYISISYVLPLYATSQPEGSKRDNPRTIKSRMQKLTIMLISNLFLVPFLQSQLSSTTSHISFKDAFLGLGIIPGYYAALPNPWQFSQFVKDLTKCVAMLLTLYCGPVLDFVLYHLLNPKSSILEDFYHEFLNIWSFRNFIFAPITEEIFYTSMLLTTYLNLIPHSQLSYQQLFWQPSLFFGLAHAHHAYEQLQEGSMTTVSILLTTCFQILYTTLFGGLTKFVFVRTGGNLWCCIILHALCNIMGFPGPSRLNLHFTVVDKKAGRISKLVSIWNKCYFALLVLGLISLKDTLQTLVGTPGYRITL
MT1-MMP act inh RFP: also measured in MT1-MMP act inh; calls as there; RFP signal change, %; measured here: RFP expression control read;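 0 = vehicle wells; hits needed this value within 50% of zero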
* marks the source's active call; other numbers are inactive results; i = inactive; ? = inconclusive; / = no result given.

SMILES	MT1-MMP act inh	MT1-MMP act inh RFP	CSC inhib	eIF4H inh	PABP polyA inh	Env fusion inh	Yeast UUG start	Rce1 inh
CC(C)NS(=O)(=O)c1ccc(NC(=O)C(C)OC(=O)CCC2CCCCC2)cc1 (centres undefined)	-1	-1	/	/	/	-6	-5	/
COc1ccc(/C=C(/NC(=O)c2ccccc2Cl)C(=O)NCCCC(=O)O)cc1	7	5	/	-4	0	-6	/	i
O=C(Nc1ccc(Cl)cc1)ON=C1CCCC1	-1	2	34	-5	-5	8	60	i
COc1cc(OC)cc(C(=O)N2CCN(Cc3ccccc3Br)CC2)c1	1	4	1	2	4	7	/	i
Cc1cc(C)cc(N2C(=O)CN(Cc3sccc3C)C2=S)c1	-1	-1	/	-9	-14	-5	/	i
COC(=O)C1=C(CSc2nccn2C)NC(=O)NC1c1cc(C)ccc1C (centres undefined)	5	2	-5	-7	5	/	-21	i
CCCC1C2C(=O)N(c3cccc(C)c3)C(=O)C2ON1c1ccccc1 (centres undefined)	1	0	-12	-14	1	3	3	i
CCC(C)/C(C)=N/NC(=O)CNS(=O)(=O)c1ccc([N+](=O)[O-])cc1 (centres undefined)	1	1	-4	-8	-6	-1	/	i
COc1ccc(C(=O)OC/C(O)=C(\C#N)c2nc3ccccc3[nH]2)cc1S(=O)(=O)N1CCOCC1	5	6	-4	13	-4	19	-29	i
CSc1nccn1CC(=O)Nc1ccc(F)cc1	7	7	0	15	0	/	-11	i

Continued (seven carried over from the part before).
SMILES	MT1-MMP act inh	MT1-MMP act inh RFP	CSC inhib	eIF4H inh	PABP polyA inh	Env fusion inh	Yeast UUG start	Rce1 inh
COc1cc(OC)cc(C(=O)N2CCN(Cc3ccccc3Br)CC2)c1	1	4	1	2	4	7	/	i
Cc1cc(C)cc(N2C(=O)CN(Cc3sccc3C)C2=S)c1	-1	-1	/	-9	-14	-5	/	i
COC(=O)C1=C(CSc2nccn2C)NC(=O)NC1c1cc(C)ccc1C (centres undefined)	5	2	-5	-7	5	/	-21	i
CCCC1C2C(=O)N(c3cccc(C)c3)C(=O)C2ON1c1ccccc1 (centres undefined)	1	0	-12	-14	1	3	3	i
CCC(C)/C(C)=N/NC(=O)CNS(=O)(=O)c1ccc([N+](=O)[O-])cc1 (centres undefined)	1	1	-4	-8	-6	-1	/	i
COc1ccc(C(=O)OC/C(O)=C(\C#N)c2nc3ccccc3[nH]2)cc1S(=O)(=O)N1CCOCC1	5	6	-4	13	-4	19	-29	i
CSc1nccn1CC(=O)Nc1ccc(F)cc1	7	7	0	15	0	/	-11	i
CC(O)C(=O)N/N=C/c1ccccc1C(=O)O (centres undefined)	-4	8	-5	-7	6	4	-6	i
O=c1c2c(ncn2C2CCCC2)n(Cc2ccccc2)c(=O)n1CCOc1ccc(Br)cc1	-2	-3	29	8	10	1	/	i
O=C(Cc1ccccc1[N+](=O)[O-])OCN1C(=O)c2ccccc2C1=O	-2	2	-5	0	17	-101	-5	i
Cc1cc(C)cc(SCc2noc(C(=O)NC(C)C)c2C(=O)NC(C)C)c1	1	5	-4	-9	8	/	-8	i
Cc1csc(SCC(=O)Nc2ccc(Cl)cn2)n1	-2	5	/	4	-2	11	-23	i
O=C(CCc1ccc(S(=O)(=O)NCCc2ccccc2)cc1)Nc1ccc2c(c1)OCO2	3	-2	/	12	8	/	-11	i
COc1ccc(CNC(=O)C(C)Sc2nc3ccccc3c(=O)n2CCCN2CCOCC2)cc1 (centres undefined)	3	4	-9	-13	-11	-4	/	i
N#Cc1nc(-c2ccccc2)oc1N1CCN(C(=O)c2ccco2)CC1	0	-1	3	1	-15	5	10	i
S=C(NCC1CCCO1)Nc1ccc(Cl)cc1Cl (centres undefined)	3	-1	-12	8	-5	10	-20	i
COc1ccc(OC)c(S(=O)(=O)N2CCC(C(=O)Nc3cccc(C)c3C)CC2)c1	3	-3	5	-10	2	-11	-21	i
CCN(CC)S(=O)(=O)c1cccc(N=Nc2c(O)c3ccccc3oc2=O)c1	0	-2	19	?	?	-29	-10	i
CCNC(=O)CC1C(=O)N(c2cccc(OC)c2)C(=O)N1CCOC (centres undefined)	-2	3	-1	1	7	/	23	i
CC(=O)N(C)C1=C(N2CCOCC2)C(=O)c2ccccc2C1=O	0	-9	/	1	6	/	/	i
CC(C)CC1NC(=O)N(Cc2nc3ccccc3s2)C1=O (centres undefined)	-2	4	10	0	2	-48	5	i
O=C(CN1c2ccccc2Sc2ccccc21)N/N=C/c1ccc(Cl)cc1	4	-2	62	9	16	0	180*	i
COc1ccc(/C(C)=N/OCC(=O)N=Nc2c(O)[nH]c3ccc(Br)cc23)cc1	3	-13	2	3	-8	-123	/	i
COc1cc2[nH]c(-c3cccc(F)c3)cc(=O)c2cc1OC	0	-1	13	3	0	-32	-14	i
COc1ccccc1-n1c(CCn2nc(C)c(Br)c2C)n[nH]c1=S	0	2	-2	8	8	1	/	i
CCOc1ccc(S(=O)(=O)N/N=C2/CC(c3ccccc3)Oc3ccccc32)cc1 (centres undefined)	3	-6	52	-11	-9	-73	-10	i
CC(=O)Oc1ccc(-c2csc(Nc3ccc(Cl)cn3)n2)cc1	2	-13	95*	6	10	-18	-12	i

Reformatted with values under each structure: entries from further up
Each structure is followed by: MT1-MMP act inh | MT1-MMP act inh RFP | CSC inhib | eIF4H inh | PABP polyA inh | Env fusion inh | Yeast UUG start | Rce1 inh
> CC(C)CC1NC(=O)N(Cc2nc3ccccc3s2)C1=O (centres undefined)
    -2 | 4 | 10 | 0 | 2 | -48 | 5 | i
> O=C(CN1c2ccccc2Sc2ccccc21)N/N=C/c1ccc(Cl)cc1
    4 | -2 | 62 | 9 | 16 | 0 | 180* | i
> COc1ccc(/C(C)=N/OCC(=O)N=Nc2c(O)[nH]c3ccc(Br)cc23)cc1
    3 | -13 | 2 | 3 | -8 | -123 | / | i

(listing goes on)
SMILES	MT1-MMP act inh	MT1-MMP act inh RFP	CSC inhib	eIF4H inh	PABP polyA inh	Env fusion inh	Yeast UUG start	Rce1 inh
COc1cc(-c2coc3c(C(=O)NCc4ccc(OC)c(OC)c4)cccc23)ccc1O	7	-28	/	/	/	-5	1	/
CC(=O)Nc1cc2c(cc1Cl)-c1ccccc1C2	-12	-12	/	/	/	-9	-25	/
Cc1ccc(-c2ccc(/C=C3\SC(N4CCOCC4)=NC3=O)o2)cc1	-17	-4	20	-4	-2	2	/	i
O=C(NCc1cccc(F)c1)c1cccc2c1C(=O)c1ccc(N3CCOCC3)cc1S2(=O)=O	-8	4	/	/	/	-8	-12	/
COc1ccc(Cc2c(-c3ccc(F)cc3)nc3c4ccccc4ccn23)c(C)c1	-2	0	/	/	/	-20	2	/
O=C(Nc1cccc2ncccc12)c1cc(Br)ccc1Cl	-6	-5	-3	-2	-8	8	-19	i
CN1CCN(c2ccccc2NC(=O)c2ccc(-c3ccc(Cl)c(Cl)c3)o2)CC1	4	-3	90*	0	12	/	3	i
COCCn1c(SCC(=O)Nc2cc(C)on2)nc2c([nH]c3ccccc32)c1=O	-1	6	/	/	/	59*	-19	/
CC(C)c1ccc2oc(=O)cc(CN3CCN(Cc4ccccc4)CC3)c2c1	0	-3	3	-3	6	1	-12	i
COc1ccc(C(=O)C2CCCN(Cc3ccc4c(c3)OCCO4)C2)cc1F (centres undefined)	0	0	17	7	5	-9	6	i
CCP(=O)(c1ccccc1)C(C)(C)O (centres undefined)	0	5	-4	-2	-11	/	6	i
O=C(Nc1ccc(Br)cc1)c1cccc(N2C(=O)C3C4C=CC(C4)C3C2=O)c1 (centres undefined)	3	-10	5	-5	-9	-7	1	i
Cc1c(Br)ccc(NC(=O)c2ccccc2[N+](=O)[O-])c1C	7	1	10	-8	-3	-6	5	i
CCCc1cc(=O)[nH]c2nnc(SCC(=O)Nc3nccs3)n12	2	3	-11	/	/	35	3	i
O=C(Cn1cc2c(n1)CCCCC2)Nc1ccccc1Cl	2	-1	3	2	3	-15	/	i
CCOC(=O)C1CCN(C(=O)c2cccc(N3C(=O)NC4CC3(C)Oc3ccc(C)cc34)c2)CC1 (centres undefined)	1	2	-12	8	8	-1	-8	i
Cc1nc2ccc(Br)cc2c(=O)n1Cc1cccs1	3	2	15	/	/	0	/	i
NC(=O)CSc1nc2c(sc(=S)n2-c2ccccc2)c(=O)[nH]1	0	3	-9	0	4	-3	-7	i
CC(C)Oc1cccc(C(=O)NC(=S)Nc2ccccc2N2CCOCC2)c1	-6	-4	121*	1	1	/	-10	i
CCOc1ccc(NC(=O)CSc2nc3ccsc3c(=O)n2Cc2ccc(C(=O)O)cc2)cc1	-1	2	/	/	/	14	11	/
Cc1[nH]c2ccccc2c1C(=O)COC(=O)C1CCC(=O)N1 (centres undefined)	-1	8	-11	2	-7	/	-14	i
Cc1cc(/C=N/NC(=O)c2cccc(F)c2)c(C)n1-c1ccccc1	2	3	35	17	-7	-86	/	i
O=C(NCc1n[nH]c(=S)n1-c1cccc(Cl)c1)c1cccs1	-1	2	/	-8	-4	2	-16	i
C=CCNC(=S)N/N=C/c1cccc([N+](=O)[O-])c1	-1	-3	-2	-1	3	7	-21	i
Cn1cnnc1Sc1nc2ccccc2nc1NS(=O)(=O)c1ccccc1	-18	-1	17	?	?	-46	-13	i
CCCN1CCC(N2CCN(c3ccc([N+](=O)[O-])cc3)CC2)CC1	4	-2	38	6	11	10	-15	i
O=S(=O)([O-])CCC[n+]1ccc(Oc2ccccc2)cc1	-6	-1	0	/	/	6	-5	i
CC(C)c1ccc(S(=O)(=O)N2CCN(C(=O)c3cc(-c4ccccc4)n[nH]3)CC2)cc1	-2	-5	-5	-6	-5	-5	-2	i
O=[N+]([O-])c1cc([N+](=O)[O-])c(Oc2cccc(Cl)c2Cl)cc1NN1CCCCC1	-7	-2	3	1	13	42	-15	i
COc1cccc(CC2(CO)CCCN(Cc3c(C)cc(C)cc3-n3cccn3)C2)c1 (centres undefined)	-9	-7	5	-16	-16	16	/	i
CCOC(=O)c1ccc(OCC(=O)c2ccc(O)cc2O)cc1	-3	-3	1	-1	-1	/	4	i
COc1ccccc1N(C)S(=O)(=O)c1ccc(C(=O)OCC(=O)Nc2ccc(C(N)=O)cc2)cc1	-2	2	-5	/	/	/	2	/
Cc1ccc(C(=O)NCCNC(=O)COc2ccccc2Cl)cn1	-1	3	-1	-8	1	15	-16	i
CCc1c(C2(O)CCCCC2)[nH]c2ccc(C(=O)OC)cc12	-1	2	2	/	/	-9	-11	i
O=C(N/N=C/c1cn[nH]c1-c1ccc(F)cc1)c1ccncc1	3	3	-3	-1	18	-3	/	i
CC(C)Cn1c(N)c(C(=O)COC(=O)c2cccn2C)c(=O)n(C)c1=O	15	4	-19	/	/	10	0	/
